Compound activity (PubChem BioAssay)
HCMV UL50-53 inh = inhibitors of HCMV UL50-UL53 nuclear egress complex interaction | HTRF UL50-UL53 interaction, normalized percent inhibition | inhibition, % (test concentration not listed) | 0.15% of 190,000 active | AID 1918969;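 active = both replicates at 50% or more, plus weaker picks with an unusually low signal ratio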;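 note: stock transfer was 100 nL into about 20 µL; 0% = negative control wells and 100% = wells with untagged competitor protein; inactives centre near -12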
Sa growth 42C = blocks Staphylococcus aureus growth | S. aureus RN4220 growth, OD600, 20 h, 42 °C; stronger effect = lower value | relative growth, % (concentration not given with the values) | 0.53% of 170,000 active | AID 720641;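 active = growth at 42 °C up to 50% and 20 or more points under that at 30 °C, or under 10% at both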;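 note: 300 nL library stock went into each well; scaled to the means of positive and negative controls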
GIV-Gai inh = inhibitors of GIV GBA-motif binding to rat Galpha-i3; Galpha-i3/FITC-GIV peptide fluorescence polarization, 90 min; stronger effect = lower value; scaled: aluminum fluoride 0%, vehicle 100%; 0.42% of 210,000 active; percent of control (FP), % (no concentration beside the values); P08753;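 active = replicate mean at 85% of control or lower, very high polarization wells dropped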;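 note: wells of about 15 µL received 100 nL stock; the first replicate is given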
Target sequence (P08753 whole entry, looked up): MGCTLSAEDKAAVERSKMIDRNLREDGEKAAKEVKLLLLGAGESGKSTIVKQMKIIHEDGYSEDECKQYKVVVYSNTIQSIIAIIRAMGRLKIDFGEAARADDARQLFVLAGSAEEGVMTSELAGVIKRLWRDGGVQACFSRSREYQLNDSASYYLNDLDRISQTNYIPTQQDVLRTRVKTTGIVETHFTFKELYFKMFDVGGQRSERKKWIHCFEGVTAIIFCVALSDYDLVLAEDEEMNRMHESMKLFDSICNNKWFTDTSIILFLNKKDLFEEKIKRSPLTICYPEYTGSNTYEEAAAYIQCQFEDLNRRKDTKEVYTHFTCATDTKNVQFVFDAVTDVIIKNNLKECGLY
Sa growth 42C second temp = recorded beside Sa growth 42C, whose call it bears; relative growth, %; measured here: growth at 30 °C;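 optical density after 20 h as mean of two plates; 100% = untreated growth and lower means inhibition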
An asterisk follows results filed as active; & = joins results of further samples.

How did CCOc1ccc(S(=O)(=O)N2CCN(C(=O)CNC(=O)c3cccs3)CC2)cc1 do in these assays?
HCMV UL50-53 inh: -18; Sa growth 42C: 116; Sa growth 42C second temp: 91

What do the screens show for `CCN1CCn2c(nc3cccc(Cl)c32)C1`?
HCMV UL50-53 inh: -23; GIV-Gai inh: 101

Results for Cc1ccc(Cn2cc3c(n2)-c2c(oc(C(=O)Nc4ccc(F)cc4F)c2C)CC3)cc1 ?
HCMV UL50-53 inh: -17; Sa growth 42C: 105; GIV-Gai inh: 99; Sa growth 42C second temp: 90

How did Cc1nnc(N2CCN(c3ccc(Cl)cc3)CC2)c2c1nnn2Cc1ccc(F)cc1 do in these assays?
HCMV UL50-53 inh: -11; Sa growth 42C: 95; GIV-Gai inh: 103; Sa growth 42C second temp: 87

How did O=C1NCC(O)=C1C=Nc1ccccc1O do in these assays?
Sa growth 42C: 80; GIV-Gai inh: 108; Sa growth 42C second temp: 70

How did CCOc1cc(-c2nc(-c3cc4cc(C)ccc4nc3OC)no2)cc(OCC)c1OCC do in these assays?
Sa growth 42C: 109; GIV-Gai inh: 112; Sa growth 42C second temp: 96

What do the screens show for `O=S(=O)(c1cc(Cl)sc1Cl)N1CCOCC1`?
HCMV UL50-53 inh: -21; Sa growth 42C: 89; GIV-Gai inh: 105; Sa growth 42C second temp: 82

What do the screens show for `O=C(Nc1ccc2c(c1)OCCO2)c1ccc(Br)o1`?
HCMV UL50-53 inh: -24; Sa growth 42C: 88; GIV-Gai inh: 103; Sa growth 42C second temp: 80

What do the screens show for `COc1cc(C2NC(=O)NC(C)=C2C(=O)Nc2cc(C)cc(C)c2)ccc1O` (configuration not stated)?
HCMV UL50-53 inh: -38; Sa growth 42C: 110; GIV-Gai inh: 104; Sa growth 42C second temp: 85

How did O=C1CCS(=O)(=O)N1c1ccc(S(=O)(=O)NC2CC2)cc1 do in these assays?
HCMV UL50-53 inh: -36; GIV-Gai inh: 110

What do the screens show for `O=S(=O)(NCc1ccccc1)c1ccc2[nH]c3c(c2c1)CCCCC3`?
Sa growth 42C: 89; GIV-Gai inh: 107; Sa growth 42C second temp: 88

How did Cc1ccc(-c2cc(C(=O)Nc3cc([N+](=O)[O-])ccc3C)no2)cc1F do in these assays?
HCMV UL50-53 inh: 4; Sa growth 42C: 101; GIV-Gai inh: 101; Sa growth 42C second temp: 93

Results for CCCC(=O)Nc1c2c(nn1-c1ccccc1)CSC2 ?
HCMV UL50-53 inh: -5; Sa growth 42C: 101; GIV-Gai inh: 99; Sa growth 42C second temp: 72

What do the screens show for `CCn1c(C)c(CCC(=O)N2CCCCCC2)c(=O)n2nc(-c3ccccc3OC)cc12`?
HCMV UL50-53 inh: 2; Sa growth 42C: 105; GIV-Gai inh: 105; Sa growth 42C second temp: 86

Results for COc1ccc2oc(C(=O)OCC(=O)c3ccc(F)cc3)c(C)c2c1 ?
HCMV UL50-53 inh: -1; Sa growth 42C: 112; Sa growth 42C second temp: 97

Results for COc1cccc(CNC(=O)[C@@H](NS(=O)(=O)c2ccccc2)C(C)C)c1 ?
HCMV UL50-53 inh: -20; Sa growth 42C: 101; Sa growth 42C second temp: 82

How did Cc1ccc(Cl)cc1NC(=O)c1ccc(-c2nc(CSc3ccccc3)c(C)o2)cc1 do in these assays?
Sa growth 42C: 107; GIV-Gai inh: 103; Sa growth 42C second temp: 98

Results for CCCCNCc1ccc(OCc2ccc3c(c2)n(C)c(=O)n3C)c(OC)c1 ?
HCMV UL50-53 inh: -7; GIV-Gai inh: 104

Results for Cc1cc(C)nc(SCC(=O)OCc2cccc(S(=O)(=O)N3CCOCC3)c2)n1 ?
HCMV UL50-53 inh: 2; Sa growth 42C: 102; Sa growth 42C second temp: 92

How did CNC(=O)N1CCCC(c2cccc(C(=O)NC(C)c3ccccc3)c2)C1 (configuration not stated) do in these assays?
HCMV UL50-53 inh: -25; GIV-Gai inh: 108

How did CC1=CC(=C(C#N)C#N)C=C(C)N1c1ccc(I)cc1 do in these assays?
HCMV UL50-53 inh: -16; Sa growth 42C: 97; Sa growth 42C second temp: 94

Results for COC(=O)c1ccc(COC(=O)c2cccnc2N)o1 ?
HCMV UL50-53 inh: -9; Sa growth 42C: 92; Sa growth 42C second temp: 95

What do the screens show for `CNC1(C#N)CCCCC1`?
HCMV UL50-53 inh: -11; Sa growth 42C: 89; Sa growth 42C second temp: 86

What do the screens show for `CCOc1ccccc1-n1c(C)nc2cc(C(=O)O)ccc21`?
HCMV UL50-53 inh: -20; Sa growth 42C: 106; GIV-Gai inh: 103; Sa growth 42C second temp: 92

What do the screens show for `O=C(NCc1ccccc1Cl)c1nnc(Cc2cccc(F)c2)o1`?
HCMV UL50-53 inh: -10; Sa growth 42C: 116; GIV-Gai inh: 100; Sa growth 42C second temp: 89

Results for CN1C(=O)/C(=C\c2ccccc2C(F)(F)F)SC1=S ?
Sa growth 42C: 88; GIV-Gai inh: 105; Sa growth 42C second temp: 88

What do the screens show for `COC(=O)c1ccc(-c2nc(-c3cc(C)nc4ccccc34)no2)cc1`?
Sa growth 42C: 95; GIV-Gai inh: 99; Sa growth 42C second temp: 88

What do the screens show for `CCCc1cc(=O)[nH]c(Nc2cc(C)cc(C)c2)n1`?
HCMV UL50-53 inh: 21; Sa growth 42C: 100; GIV-Gai inh: 105; Sa growth 42C second temp: 91

How did CCOc1ccc(C(=O)NCC(=O)NCC2CCCCC2)cc1OCC do in these assays?
HCMV UL50-53 inh: -6; Sa growth 42C: 94; Sa growth 42C second temp: 99

What do the screens show for `O=C(Cn1c(C(=O)OCCO)cc2ccccc21)c1ccccc1`?
HCMV UL50-53 inh: -6; Sa growth 42C: 109; GIV-Gai inh: 102; Sa growth 42C second temp: 82

What do the screens show for `COc1ccc(C2=CC(c3ccc(N(C)C)cc3)n3nnnc3N2)cc1` (configuration not stated)?
Sa growth 42C: 109; GIV-Gai inh: 107; Sa growth 42C second temp: 97

How did CN(Cc1ccccc1)Cn1c(=S)oc2ccc(Cl)cc21 do in these assays?
HCMV UL50-53 inh: -29; Sa growth 42C: 100; Sa growth 42C second temp: 65

How did Cc1ccccc1-n1nnnc1SCC(=O)N(Cc1cccs1)c1ccc2c(c1)OCCO2 do in these assays?
HCMV UL50-53 inh: 6; Sa growth 42C: 120; Sa growth 42C second temp: 106

Results for CCc1cccc(OCC(=O)O)c1 ?
HCMV UL50-53 inh: 7; Sa growth 42C: 78; Sa growth 42C second temp: 96

What do the screens show for `CN(C)c1cccc(C(=O)N2CCOCC2)c1`?
HCMV UL50-53 inh: -10; Sa growth 42C: 97; GIV-Gai inh: 102; Sa growth 42C second temp: 76

Results for Cc1ccn2nc(C(=O)OCc3cc(=O)oc4cc5c(cc34)CCC5)nc2n1 ?
HCMV UL50-53 inh: -9; Sa growth 42C: 90; Sa growth 42C second temp: 93

How did Cc1cccc(OC(=O)Nc2ccccc2)c1 do in these assays?
HCMV UL50-53 inh: -8; Sa growth 42C: 102; Sa growth 42C second temp: 91

What do the screens show for `Cc1ccc(CSC2=Nc3ccccc3C3=NC(CCC(=O)NCc4cccs4)C(=O)N23)c(C)c1` (configuration not stated)?
Sa growth 42C: 81; GIV-Gai inh: 104; Sa growth 42C second temp: 90

Results for COc1cc2c(cc1OC)C(COc1ccc3c(C)cc(=O)oc3c1)N(C(=O)c1ccccc1F)CC2 (configuration not stated) ?
HCMV UL50-53 inh: -1; Sa growth 42C: 100; GIV-Gai inh: 106; Sa growth 42C second temp: 93

Results for O=C(c1cccc(COc2ccccc2Cl)c1)N1CCCCC1 ?
Sa growth 42C: 76; GIV-Gai inh: 102; Sa growth 42C second temp: 53

Results for CCC1CCCCN1C(=O)Cn1c(C(=O)OC)cc2sccc21 (configuration not stated) ?
HCMV UL50-53 inh: -7; Sa growth 42C: 99; GIV-Gai inh: 105; Sa growth 42C second temp: 90

What do the screens show for `COC(=O)c1sc(-c2ccccc2)cc1NC(=O)Nc1ccc(Cl)cc1`?
HCMV UL50-53 inh: -2; Sa growth 42C: 112; GIV-Gai inh: 100; Sa growth 42C second temp: 84

How did Cc1ccc(-c2n[nH]c(=O)c3ccccc23)cc1S(=O)(=O)N(C)C do in these assays?
HCMV UL50-53 inh: -4; GIV-Gai inh: 101

How did CSc1ncccc1C(=O)NC1(O)C(=O)c2ccccc2C1=O do in these assays?
HCMV UL50-53 inh: 56*; Sa growth 42C: 97; GIV-Gai inh: 93; Sa growth 42C second temp: 87

How did O=C1CCSc2ccc(S(=O)(=O)N3CCC(N4CCCCC4)CC3)cc2N1 do in these assays?
HCMV UL50-53 inh: -5; GIV-Gai inh: 107

How did O=C(Nc1cccnc1)c1cc(=O)c2ccccc2o1 do in these assays?
HCMV UL50-53 inh: -71&-132; Sa growth 42C: 85; GIV-Gai inh: 95&100; Sa growth 42C second temp: 92

Results for COc1ccccc1C(=O)N1CCc2ccccc2C1 ?
HCMV UL50-53 inh: -13; Sa growth 42C: 109; GIV-Gai inh: 97; Sa growth 42C second temp: 80

How did CCc1ccc(-c2nc3ccccn3c2CNCCc2ccccc2)cc1 do in these assays?
HCMV UL50-53 inh: -9; GIV-Gai inh: 100

What do the screens show for `Cc1cc(C)nc(NS(=O)(=O)c2ccc(NC(=O)CSc3nnc(-c4ccccc4)c(-c4ccccc4)n3)cc2)n1`?
HCMV UL50-53 inh: -38; GIV-Gai inh: 98

What do the screens show for `CC(C)(C)CC(C)(C)NC(=O)C1CCCCC1`?
HCMV UL50-53 inh: 0; Sa growth 42C: 96; Sa growth 42C second temp: 91

What do the screens show for `Cc1nnsc1C(=O)N(Cc1ccccc1)C(C)C`?
HCMV UL50-53 inh: -18; Sa growth 42C: 73; GIV-Gai inh: 101; Sa growth 42C second temp: 83

What do the screens show for `C=CCn1c(SCC(=O)c2cccs2)nnc1-c1cccc(OC)c1`?
HCMV UL50-53 inh: -13; GIV-Gai inh: 110

Results for Cc1ccc2[nH]c(=O)c3cc(C(=O)N(C)c4ccc(Br)cc4)sc3c2c1 ?
HCMV UL50-53 inh: 8; Sa growth 42C: 102; GIV-Gai inh: 106; Sa growth 42C second temp: 82

How did O=C(OCC(=O)c1ccc[nH]1)c1ccc(S(=O)(=O)N2CCCCC2)cc1 do in these assays?
HCMV UL50-53 inh: -13; Sa growth 42C: 79; Sa growth 42C second temp: 96

How did O=c1[nH]nc(-c2nnc3n2-c2ccccc2SC3)c2ccccc12 do in these assays?
HCMV UL50-53 inh: -28; Sa growth 42C: 98; Sa growth 42C second temp: 95

What do the screens show for `Cc1cccc(COC(=O)c2nnn(-c3cc(C)cc(C)c3)c2C)c1`?
HCMV UL50-53 inh: -24; GIV-Gai inh: 103

Results for COc1ccc(COc2ccc(=O)n(-c3ccc(C(=O)Nc4ccc(OC)cc4)cc3)n2)cc1 ?
HCMV UL50-53 inh: -36; GIV-Gai inh: 103

What do the screens show for `COc1ccc(C)cc1NC1(c2ccccc2)C(=O)c2ccccc2C1=O`?
Sa growth 42C: 108; GIV-Gai inh: 97; Sa growth 42C second temp: 84

How did CCC1CCCCN1CCCNC(=O)CN1C(=O)c2cccnc2Oc2ccc(Cl)cc21 (configuration not stated) do in these assays?
Sa growth 42C: 97; GIV-Gai inh: 108; Sa growth 42C second temp: 92

Results for Cc1cnc(C(=O)Nc2ccc(S(=O)(=O)NC(C)C)cc2)cn1 ?
HCMV UL50-53 inh: -21; Sa growth 42C: 110; GIV-Gai inh: 103; Sa growth 42C second temp: 86

By substructure: the compounds so far containing fluorine.
Results for Cc1ccc(Cn2cc3c(n2)-c2c(oc(C(=O)Nc4ccc(F)cc4F)c2C)CC3)cc1 ?
HCMV UL50-53 inh: -17; Sa growth 42C: 105; GIV-Gai inh: 99; Sa growth 42C second temp: 90

How did Cc1nnc(N2CCN(c3ccc(Cl)cc3)CC2)c2c1nnn2Cc1ccc(F)cc1 do in these assays?
HCMV UL50-53 inh: -11; Sa growth 42C: 95; GIV-Gai inh: 103; Sa growth 42C second temp: 87

How did Cc1ccc(-c2cc(C(=O)Nc3cc([N+](=O)[O-])ccc3C)no2)cc1F do in these assays?
HCMV UL50-53 inh: 4; Sa growth 42C: 101; GIV-Gai inh: 101; Sa growth 42C second temp: 93

Results for COc1ccc2oc(C(=O)OCC(=O)c3ccc(F)cc3)c(C)c2c1 ?
HCMV UL50-53 inh: -1; Sa growth 42C: 112; Sa growth 42C second temp: 97

What do the screens show for `O=C(NCc1ccccc1Cl)c1nnc(Cc2cccc(F)c2)o1`?
HCMV UL50-53 inh: -10; Sa growth 42C: 116; GIV-Gai inh: 100; Sa growth 42C second temp: 89

Results for CN1C(=O)/C(=C\c2ccccc2C(F)(F)F)SC1=S ?
Sa growth 42C: 88; GIV-Gai inh: 105; Sa growth 42C second temp: 88

Results for COc1cc2c(cc1OC)C(COc1ccc3c(C)cc(=O)oc3c1)N(C(=O)c1ccccc1F)CC2 (configuration not stated) ?
HCMV UL50-53 inh: -1; Sa growth 42C: 100; GIV-Gai inh: 106; Sa growth 42C second temp: 93

Other results:
Results for CCCN1CCN(c2ncnc3sc(C(=O)Nc4ccc(C(C)C)cc4)c(C)c23)CC1 ?
Sa growth 42C: 104; GIV-Gai inh: 103; Sa growth 42C second temp: 92

Results for CC(Oc1ncnc2ccccc12)C(=O)Nc1ccccc1F (configuration not stated) ?
HCMV UL50-53 inh: -31; Sa growth 42C: 101; Sa growth 42C second temp: 90

What do the screens show for `CCCOc1ccc(-c2nc(=S)[nH][nH]2)cc1`?
HCMV UL50-53 inh: -10; Sa growth 42C: 32; GIV-Gai inh: 102; Sa growth 42C second temp: 49

What do the screens show for `O=C(Nc1ccccc1C(=O)N1CCCCC1)c1nsc2ccccc12`?
Sa growth 42C: 102; GIV-Gai inh: 108; Sa growth 42C second temp: 102
